LANA-H2A inh – blocks KSHV LANA binding to histone H2A/H2B; AID 2629; inhibition, % (no concentration beside the values); cell-free LANA-H2A/H2B peptide, fluorescence polarization; 320,000 tested, 0.6% active; Q9QR71; in the data active = inhibition mostly above about 10%, no sharp cut-off; inactive = mostly below about 6.7%;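 note: stock transfer was 7.5 nL into about 10 µL; 0% = median of vehicle wells and 100% = median of positive control wells; one replicate is shown; the record names a cut of 25% in any replicate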
Calb FLC – C. albicans growth modulation with fluconazole; C. albicans CaCi-2 (fluconazole-resistant clinical isolate) + fluconazole, Alamar Blue growth, 48 h; growth inhibition, % (no concentration beside the values); 300,000 tested, 0.57% active; AID 1979;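 active = most replicates above 75%; inconclusive = exactly half above 75%; inactive = most below 75%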;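 note: all wells also contain fluconazole at 8 µg/ml as a sub-toxic cotreatment; 0% = median of DMSO wells and 100% = median of geldanamycin control wells; wells of about 8 µL received 7.5 nL stock; the first replicate is given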
UCH37 DUB inh – human UCH37 deubiquitinating enzyme inhibition; Q9Y5K5; purified proteasome/UCH37, Ub-AMC cleavage fluorescence; inhibition, % (no concentration beside the values); 330,000 tested, 0.33% active; AID 588478;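 active = mean of two replicates above 20%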;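 note: 0% = compound-free wells with enzyme and 100% = wells lacking proteasome; stock transfer was 100 nL into about 20 µL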
Target sequence (Q9Y5K5 whole entry, looked up): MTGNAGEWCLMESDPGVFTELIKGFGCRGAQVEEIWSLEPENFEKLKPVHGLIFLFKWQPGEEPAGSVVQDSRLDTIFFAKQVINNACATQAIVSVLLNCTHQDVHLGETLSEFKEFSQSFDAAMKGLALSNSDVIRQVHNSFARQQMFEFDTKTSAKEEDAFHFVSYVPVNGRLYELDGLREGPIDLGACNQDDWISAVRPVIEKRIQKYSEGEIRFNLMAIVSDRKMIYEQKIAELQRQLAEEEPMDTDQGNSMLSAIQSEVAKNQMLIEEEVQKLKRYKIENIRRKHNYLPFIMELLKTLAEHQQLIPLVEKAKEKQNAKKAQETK
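Material: Human UCH37 enzyme supplied as purified proteasome complex | Schedule: 30 min compound-proteasome preincubation then 25 min substrate reaction, room temperature | Detection: AMC fluorescence from Ub-AMC cleavage, excitation 355 nm, emission 460 nm | Benchmarks: Wells without proteasome as full block, compound-free enzyme plus substrate as uninhibited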
RanGTP-Imp inh – disruptors of Ran-importin-beta complex formation – biochemical, FRET, CFP-Ran, YFP-importin-beta, homogeneous, primary screen. 300,000 tested, 1.1% active. inhibition, % (concentration not given with the values). AID 2216. cell-free CFP-Ran/YFP-importin-beta FRET ratio;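 active = most replicates above 15%; inconclusive = exactly half above 15%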;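 note: 0% = DMSO wells and 100% = Ran loaded with GDP instead of GTP; wells of about 40 µL received 100 nL stock; the first replicate is given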
Beta cell apopt – beta cell apoptosis inhibition; INS-1E cytokine-induced death, ATP luminescence, 48 h; percent of positive-control rescue, neutral wells zero; 300,000 tested, 0.8% active; AID 435005; protection from apoptosis, % (no concentration beside the values);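 active = all replicates at 75% or more, or half of them and the mean; inconclusive = half reach 75% but not the mean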;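 note: 0% = cytokine-treated negative control wells and 100% = positive control rescue; higher means more ATP so stronger rescue from cytokine killing; wells of about 40 µL received 100 nL stock; the first replicate is given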
A1 inh – inhibitors of the anti-apoptotic protein A1, read as caspase activation | caspase activation, % (no concentration beside the values) | 330,000 tested, 0.066% active | AID 2462 | MEF A1-2A-BIM cells, Caspase-Glo 3/7 luminescence, 3 h; percent of clofoctol response, vehicle zero;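 active = over half of replicate activation scores above 10%, or exactly half above 10 with the replicate mean above 10; inconclusive = replicate mean below 10 yet half the replicates above 10; inactive = over half of replicates below 10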;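 note: wells of about 30 µL received 50 nL stock; many hits fall short of the cut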
T cruzi repl – T. cruzi replication inhibition; inhibition, % (test concentration not listed); T. cruzi beta-gal in NIH3T3, luminescence, 90 h; 300,000 tested, 1.4% active;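 active = mean inhibition across valid replicates above about 55%, limit read from the data; inconclusive = mean below that limit but half or more replicates reach it; inactive = mean below it, under half of replicates reach it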;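 note: signal also drops with host cell toxicity which is not excluded here; 0% = plate median of DMSO wells and 100% = zero luminescence signal; higher percent means less beta-gal luminescence so fewer parasites; stock transfer was 50 nL into about 50 µL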
Beta2AR agonist – human beta-2 adrenergic receptor agonism by FAP; AID 504454; P07550; Am2.2-beta2AR cells, FAP receptor internalization, flow cytometry; reference of the scale not given here; 340,000 tested, 0.43% active; response, % (no concentration beside the values);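 active = response above a set limit, near 3 SD of response in nonfluorescent compounds, cut at about 42% in these data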;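 note: stock transfer was 100 nL into about 11 µL; a reference agonist was the positive control; negative values mostly stem from fluorescent compounds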
Target sequence (P07550 whole entry, looked up): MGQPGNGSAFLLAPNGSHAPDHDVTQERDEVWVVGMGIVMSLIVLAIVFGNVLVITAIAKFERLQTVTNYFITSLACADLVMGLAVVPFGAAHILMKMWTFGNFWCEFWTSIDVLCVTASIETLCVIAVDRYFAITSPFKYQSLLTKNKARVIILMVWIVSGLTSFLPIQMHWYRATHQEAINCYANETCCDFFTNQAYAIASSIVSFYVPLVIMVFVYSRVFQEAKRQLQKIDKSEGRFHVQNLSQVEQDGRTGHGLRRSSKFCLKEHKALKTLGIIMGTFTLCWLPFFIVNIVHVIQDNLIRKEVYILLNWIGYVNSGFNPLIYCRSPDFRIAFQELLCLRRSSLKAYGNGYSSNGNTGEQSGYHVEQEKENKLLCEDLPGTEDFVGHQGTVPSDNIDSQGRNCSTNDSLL
Numbers without * were called inactive; i = inactive; ? = inconclusive; / = no result given.

SMILES | LANA-H2A inh | Calb FLC | UCH37 DUB inh | RanGTP-Imp inh | Beta cell apopt | A1 inh | T cruzi repl | Beta2AR agonist
O=C1Nc2ccc([N+](=O)[O-])cc2OC1CCN1CCN(Cc2ccc3c(c2)OCO3)CC1 (stereo unspecified) | 2.9 | -4 | 6.9 | -4.5 | 5 | 1.1 | -3 | 14
COc1cc(NC(=O)CN2CCC(Cc3ccccc3)CC2)c(C)cc1[N+](=O)[O-] | 1.4 | -4 | 2.1 | -1.1 | -4 | 1.5 | 23 | 6
CCSc1nnc(NC(=O)CSC2=NN3CCCC(=O)N=C3S2)s1 | -1.4 | 8 | / | 3.2 | -2 | 0.3 | 11 | 15
Cc1ccc(S(=O)(=O)N2CCN(c3ccccc3)CC2)s1 | -4.1 | / | 3.1 | / | -3 | 1.8 | / | -8
Cc1cn2c(=O)c(C(=O)NCc3ccc4c(c3)OCO4)cnc2s1 | -0.1 | 6 | 4.0 | -0.4 | / | -0.9 | -12 | -5
CC(=O)Nc1ccc2c(c1)nc(CCN1CCOCC1)n2C | -0.5 | -8 | 3.0 | 2.3 | -1 | 0.9 | 4 | 5
O=C(NCc1ccncc1)c1nnc(Cc2c(F)cccc2Cl)o1 | 2.9 | 3 | 5.6 | ? | 0 | 0.3 | -11 | -1
S=C(Nc1ccccc1Cl)N1CCCC1 | -0.9 | 1 | -0.4 | 2.1 | -6 | -0.3 | -24 | 3
O=C(CCSCCc1ccncc1)NCCCN1CCOCC1 | 3.3 | -1 | -2.1 | -5.4 | -4 | 0.0 | -4 | 1
COc1ccccc1OCCCCN1CCN(C(c2ccccc2)c2ccccc2)CC1 | 6.1 | 0 | 2.8 | -17 | 3 | 0.8 | 37 | 5
Cc1nc2ccc(S(=O)(=O)NC(C(=O)NCc3cccs3)C(C)C)cc2s1 (stereo unspecified) | -4.8 | 0 | 6.7 | 4.5 | -11 | 0.1 | 5 | 6
CCOC(=O)N1CCN(S(=O)(=O)/C=C/c2ccccc2)CC1 | 0.2 | 2 | -0.1 | -2.0 | -3 | 0.8 | 1 | -4
Oc1c(Cl)cccc1C=Nc1cc(C(F)(F)F)ccc1N1CCCC1 | 2.7 | 2 | -0.1 | -1.4 | 6 | 0.5 | -21 | 0
COc1cc(CNc2ccc3[nH]c(=O)[nH]c3c2)cc(Br)c1OCC(=O)NC(C)(C)C | -3.9 | 9 | 2.1 | 6.3 | -21 | -0.2 | -30 | 0
Cc1cccc(C(=O)NCCCNC(=O)c2cccc(C)c2)c1 | 2.2 | 6 | 1.2 | -1.2 | 6 | 0.0 | -5 | 0
Cc1c(C(=O)O)oc2ccc(S(=O)(=O)NCc3ccc4c(c3)OCO4)cc12 | 2.9 | 0 | 4.2 | 0.7 | -9 | -0.8 | -17 | 10
Cc1ccc(S(=O)(=O)Nc2ccccc2F)cc1C(=O)N1CCCC1 | -0.8 | / | 2.2 | / | -9 | 0.3 | / | 1
O=C(CN1C(=O)c2ccccc2C1=O)Nc1ccccc1C(=O)N1CCCC1 | 3.9 | 1 | 6.6 | 2.0 | 7 | 0.1 | -7 | -4
Cc1cc(C)nc(N(C#N)Cc2ccc(Cl)cc2)n1 | 4.9 | 23 | 0.1 | -1.5 | -4 | 0.3 | -4 | -5
CCCC1CCC(c2ccc(OCC)cc2)=CC1=O (stereo unspecified) | -0.6 | -38 | -3.3 | -0.5 | -4 | -1.7 | 7 | 2
CCc1nc2scc(-c3cccs3)c2c(=O)o1 | 8.8 | -2 | -2.2 | -0.4 | -11 | 0.6 | -3 | 2
CC1(C)CC(=O)c2ccc(OCc3ccc([N+](=O)[O-])cc3)cc2O1 | 0.8 | 5 | 1.8 | 27 | 0 | -0.7 | 25 | -12
Cc1nn(-c2ccccc2)c(C)c1C(=O)OCC(=O)Nc1ccccc1C(F)(F)F | -5.3 | / | 1.3 | / | 4 | -8.5 | / | -10
Cc1ccc(C(=O)NCC(=O)NC2CC2)cc1 | 0.1 | / | 0.8 | / | -3 | 0.8 | / | -4
Cc1nnc(NC(=O)CS(=O)(=O)Cc2ccccc2)s1 | / | 2 | 2.1 | -4.7 | / | / | -13 | 0

Continuation.
SMILES | LANA-H2A inh | Calb FLC | UCH37 DUB inh | RanGTP-Imp inh | Beta cell apopt | A1 inh | T cruzi repl | Beta2AR agonist
CC(=O)C1=C(O)C(=O)N(CCCCCC(=O)O)C1c1ccc(N(C)C)cc1 (stereo unspecified) | -2.4 | -7 | 5.8 | 2.8 | -12 | 2.1 | -4 | -2
O=C(NCC(=O)N1CCN(c2ccccc2O)CC1)c1ccc2c(c1)OCO2 | -2.0 | 3 | 2.3 | -2.2 | -3 | -1.0 | -13 | -8
O=C(NC(O)C(=O)c1ccccc1)c1ccccn1 (stereo unspecified) | -4.7 | -7 | 1.6 | 1.4 | -1 | -0.4 | -8 | 1
Cc1ccc2c(c1)C1CN(C)CCC1N2S(=O)(=O)c1cc(C(F)(F)F)ccc1Cl (stereo unspecified) | -3.6 | / | 3.1 | / | 0 | 0.4 | / | 2
CN(CC(=O)Nc1cccc(F)c1)C(=O)CSc1nc2ccccc2s1 | 2.9 | -1 | 1.7 | / | 2 | 0.2 | 1 | -13
O=C(CN1CCN(S(=O)(=O)c2ccc(Cl)cc2)CC1)Nc1ccc2c(c1)OCCO2 | -1.0 | 3 | 1.6 | -2.2 | -4 | 0.0 | -1 | 5
Cc1ccc(NC(=O)c2cnccn2)c(Br)c1 | 1.1 | -2 | 2.1 | 0.1 | -2 | -1.3 | 2 | 3
CCC(=O)Nc1cccc(-c2ccc(N3CCC(C)CC3)nn2)c1 | -1.9 | 1 | -0.8 | -0.8 | 8 | -9.9 | 3 | -5
Cc1nn(C)cc1CNCc1c(C(=O)N2CCCCC2)nc2c(C)cccn12 | -1.8 | -19 | 0.6 | 4.9 | -4 | -0.2 | 0 | 2
COc1ccc(OCC(=O)Nc2c(Cl)ccc3nsnc23)cc1 | 3.5 | -3 | 6.4 | 0.2 | 0 | -0.4 | 12 | -3
O=C(c1cccs1)n1nc(-c2ccccc2)nc1NCc1ccco1 | -0.9 | 22 | -0.6 | -0.7 | -4 | -0.1 | -2 | 3
CC(=O)c1cccc(OCC(=O)N2CCCc3ccccc32)c1 | 0.4 | 4 | 6.7 | -0.6 | -4 | -0.7 | 4 | 1
CCc1nnc(NC(=O)C(=O)NCCOC(=O)c2ccccc2Cl)s1 | -0.8 | -6 | 4.3 | -2.0 | -2 | 0.3 | -25 | 0
CCCCN(C)CCN1C(=O)C2C(C(=O)Nc3ccc(C)cc3)C3C=CC2(O3)C1C(=O)NC1CCCCC1 (stereo unspecified) | -1.3 | 4 | 3.2 | 6.3 | -5 | 0.0 | -9 | 2
Cc1ccc(-c2nnc(SCC(=O)Nc3ccccc3F)o2)cc1 | -0.3 | -1 | -0.1 | 1.8 | 11 | -0.2 | -8 | 1
Cc1cc(OCC(=O)NCc2ccncc2)c2c(C)c(C)c(=O)oc2c1 | -0.6 | -4 | -96 | 4.0 | 4 | -0.3 | 9 | 0
CN(c1ccccc1)S(=O)(=O)c1ccc(Cl)nc1 | 0.1 | 4 | 2.4 | 2.1 | -2 | 0.6 | -2 | -6
CC(OC(=O)CCNS(=O)(=O)c1cccs1)C(=O)Nc1ccc(S(N)(=O)=O)cc1 (stereo unspecified) | 4.8 | / | 4.8 | / | -9 | -0.1 | / | -6
C/C(=N\NC(=O)c1nnn(-c2nonc2N)c1-c1ccccc1)c1cccnc1 | 2.9 | -2 | / | / | 8 | -1.8 | / | -14
Cc1c(NC(=O)Cc2noc3ccccc23)cccc1[N+](=O)[O-] | -4.9 | 2 | -2.2 | 5.0 | 0 | 0.9 | -12 | 9
O=c1[nH]nc(Cc2ccc(-c3ccc(Cl)cc3)o2)c2ccccc12 | 2.7 | 13 | 1.2 | -0.2 | / | 0.3 | 4 | 5
OC(CNCc1ccccc1Cl)COc1ccc(F)cc1 (stereo unspecified) | 3.4 | 0 | 2.8 | -1.2 | -7 | 0.5 | 43 | -9
CC(C)c1[nH]nc2c1C(C1C=CCCC1)C(C#N)=C(N)O2 (stereo unspecified) | 0.4 | 16 | 3.1 | 5.3 | 6 | 0.9 | -15 | 0
CCN(CC)c1ccc(/C=N/Nc2ccccc2)c(O)c1 | -3.2 | -15 | / | -3.6 | -11 | -0.4 | -1 | 17
CCN(CC)C(=O)C(=O)N/N=C/c1ccc(Br)cc1 | -0.5 | -20 | / | 6.3 | 0 | -0.1 | -1 | -6

Other results follow.
SMILES | LANA-H2A inh | Calb FLC | UCH37 DUB inh | RanGTP-Imp inh | Beta cell apopt | A1 inh | T cruzi repl | Beta2AR agonist
COCCn1cc(C(=O)NCCN(C)C)c2c3ccccc3n(C)c2c1=O | -2.2 | 2 | -128 | 0.1 | -5 | 0.0 | 9 | -3
CCOc1ccc(S(=O)(=O)N(C)c2ccc(OCC(=O)NCC3CCCCC3)cc2)cc1 | -2.5 | / | 0.8 | / | 13 | -1.6 | / | 0
Cn1c(=O)c2cc(S(=O)(=O)N3CCC(c4ccccc4)CC3)ccc2n(C)c1=O | 0.4 | -16 | 0.7 | 4.6 | -1 | 0.2 | 15 | -15
COc1ccccc1NC(=O)c1ccc(NC2=NC3CS(=O)(=O)CC3S2)cc1 (stereo unspecified) | -5.2 | -14 | 2.2 | -2.1 | 1 | / | 5 | -8
O=[N+]([O-])c1ccccc1Nc1c2ccccc2nc2ccccc12 | -1.4 | 40 | 2.3 | 11 | -2 | -0.4 | -4 | 0
NNC(=O)c1[nH]c2ccc([N+](=O)[O-])cc2c1-c1ccccc1 | -1.6 | -1 | 3.6 | -0.6 | -6 | 1.1 | -3 | 4
Nc1nc(=S)c2[nH]cnc2[nH]1 | 0.7 | / | 3.3 | / | / | 0.8 | / | 0
O=S(=O)(c1ccccc1Cl)N1CCC(Cc2ccccc2)CC1 | 1.9 | -3 | 0.7 | 2.7 | 1 | 1.6 | 23 | 15
CCC(CC)c1nnc(NC(=O)CSCC(=O)Nc2cc(C)on2)s1 | -1.1 | -2 | 2.9 | 5.3 | -2 | 0.4 | 0 | -3
COc1ccc(C2=NC(=O)/C(=C\c3cc(OC)c(OC)c(OC)c3)O2)cc1 | i | / | 4.0 | / | -1 | -0.3 | / | 8
COc1ccccc1CCc1nnc(CCC(=O)N(C)Cc2cccc3ncccc23)o1 | 0.5 | 0 | 3.8 | -5.1 | 2 | -0.2 | 19 | -14
O=C(Nc1cccc([N+](=O)[O-])c1)c1ccc2nc(N3C(=O)CCC3=O)sc2c1 | -1.7 | 11 | 0.2 | 3.2 | 3 | -0.8 | -10 | 4
COc1ccc(CN(C)C(C)C(=O)Nc2ccc(S(=O)(=O)N3CCCCC3)cc2)c(OC)c1 (stereo unspecified) | 2.3 | / | 0.7 | / | -12 | 0.8 | / | 8
O=C(O)CC/C(=C\c1ccc(N2CCCC2)c([N+](=O)[O-])c1)c1nc2ccccc2s1 | 2.7 | -6 | 5.5 | -1.6 | -2 | 2.4 | 5 | -5
C=CCn1c(COc2cccc(C)c2)nnc1SC(C)C(=O)NC1CC1 (stereo unspecified) | 0.4 | / | -0.7 | / | 3 | -0.6 | / | 1
CC1C/C(=N/Nc2nc3ccccc3[nH]2)CC(C)(C)C1 (stereo unspecified) | 1.8 | -27 | / | 4.1 | 25 | 1.0 | 19 | 7

Compound activity deposited in PubChem BioAssay by several laboratories.
